From PubChem
KCNQ2 enhance: potentiators of rat KCNQ2 potassium channel. B-score at 10 µM. 310,000 tested, 0.54% active. CHO-K1 KCNQ2, FluxOR thallium flux fluorescence; active compounds read high;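 active means fluorescence ratio B-score at least 3 SD of library B-scores, with initial fluorescence B-score within 3 SD, cut at about 5.3 in these data; same plate scores as AID 2156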;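 further: B-score of peak minus minimum over baseline fluorescence ratio after K+ and Tl+ stimulus; positive B-score means potentiation of KCNQ2 with more thallium influx and brighter signal; only the inactives scoring about 0 or higher are listed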
Target sequence (O88943 whole entry, looked up): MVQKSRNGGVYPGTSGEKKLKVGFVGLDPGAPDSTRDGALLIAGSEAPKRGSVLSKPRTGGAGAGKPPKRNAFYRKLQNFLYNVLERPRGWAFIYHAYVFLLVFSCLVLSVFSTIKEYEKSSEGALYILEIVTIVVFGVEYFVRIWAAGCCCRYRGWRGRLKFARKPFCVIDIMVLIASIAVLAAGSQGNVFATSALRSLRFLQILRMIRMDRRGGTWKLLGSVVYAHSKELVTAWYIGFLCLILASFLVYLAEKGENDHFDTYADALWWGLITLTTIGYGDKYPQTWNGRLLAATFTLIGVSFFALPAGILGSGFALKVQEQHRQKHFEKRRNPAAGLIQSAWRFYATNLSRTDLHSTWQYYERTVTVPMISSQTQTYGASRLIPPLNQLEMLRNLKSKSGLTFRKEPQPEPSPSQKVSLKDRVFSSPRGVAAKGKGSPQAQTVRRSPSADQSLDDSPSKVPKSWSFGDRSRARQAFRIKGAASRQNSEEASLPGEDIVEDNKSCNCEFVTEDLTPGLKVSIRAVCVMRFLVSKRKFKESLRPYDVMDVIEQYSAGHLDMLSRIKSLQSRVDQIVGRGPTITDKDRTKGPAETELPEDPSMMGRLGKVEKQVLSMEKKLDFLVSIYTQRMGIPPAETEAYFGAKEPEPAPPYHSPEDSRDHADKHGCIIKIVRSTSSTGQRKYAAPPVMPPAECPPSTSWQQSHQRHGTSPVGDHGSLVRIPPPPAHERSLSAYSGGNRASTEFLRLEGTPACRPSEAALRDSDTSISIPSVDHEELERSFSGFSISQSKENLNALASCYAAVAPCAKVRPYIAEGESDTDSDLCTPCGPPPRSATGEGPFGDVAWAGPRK
KCNQ2 enhance baseline: recorded beside KCNQ2 enhance, whose call it bears; B-score; compound at 10 µM; measured here: initial fluorescence intensity artifact check;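 brightness before thallium and not channel activity; 0 = typical well and far values either way flag optical interference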
Active calls of the source: *. An excerpt; rates above refer to the full screens.

Order of values: KCNQ2 enhance | KCNQ2 enhance baseline
CC1CN(C(=S)NC(=O)c2ccccc2)CC(C)O1 (stereo not given)
  0.22 | -0.87
O=C(Nc1ncnc2sc3c(c12)CCCC3)c1ccncc1
  1.74 | -0.51
Cn1c(=O)c2c(-c3cccc(Br)c3)c(C#N)c(N)nc2n(C)c1=O
  0.1 | -0.43
Cc1ccc(CC(=O)N2CCOCC2)cc1
  0.43 | -0.19
Cc1ccc(C(=O)Nc2ncc3c(n2)CC(c2ccco2)CC3=O)cc1 (stereo not given)
  1.27 | -0.71
CC(C)C[C@H](NC(=O)N1CC(=O)Nc2ccccc21)C(=O)N[C@H](Cc1ccccc1)C(=O)O
  0.51 | -0.07
CCCc1nc2sc3c(=O)n(N)cnc3c2c2c1CCCC2
  1.3 | 0.99
CCc1cc2cc3c(cc2nc1SCC(=O)Nc1nccs1)OCO3
  0.92 | -1.82
COc1cccc(NC(=O)C(=O)N2CCOCC2)c1
  2.37 | -1.18
Cc1cc(Nc2ccccc2F)n2ncnc2n1
  2.44 | -0.26
COc1ccc(S(=O)(=O)N2CCc3ccccc32)cc1[N+](=O)[O-]
  0.55 | -0.87
Cc1c(OCC(F)(F)F)ccnc1CSc1nc2ccccc2[nH]1
  0.16 | -0.5
Cn1c2ccccc2c2nnc(SCC(=O)NC3CCCC3)nc21
  1.69 | 0.1
CCCC(=O)Nc1ccc2c(c1)COC2=O
  1.46 | 1.02
CC(=O)N1CCN(c2ccc(S(=O)(=O)NCCN(C(C)C)C(C)C)cc2[N+](=O)[O-])CC1
  0.54 | 0.05
COc1cccc(C(=O)OCC(=O)Nc2cc(C)c(C)cc2[N+](=O)[O-])c1
  1.09 | 0.48
CNc1ccc([N+](=O)[O-])cc1-c1nc2ccccc2[nH]c1=O
  1.39 | 0.98
N#CC[C@H](c1ccccc1)N1CCN(Cc2ccccc2)CCC1=O
  0.17 | -1.26
COc1cc2ccccc2cc1C(=O)NC(=S)Nc1nnn(C)n1
  0.01 | 1.42
NC(=O)C1(c2ccccc2)CCC(=O)N1c1ccccc1 (stereo not given)
  0.89 | -1.38
c1ccc(-c2nc(C3CCCCC3)c3ccccc3n2)cc1
  0.61 | 0.28
O=C(O)c1ccc2c(=O)n3c(nc2c1)/C(=C/c1cccc(Cl)c1Cl)CCCC3
  0.87 | 0.04
Cc1csc(=O)n1CC(=O)OCC(=O)NNC(=O)c1ccc([N+](=O)[O-])cc1
  0.05 | 0.54
COc1ccc(NC(=O)c2ccco2)cc1NC(=O)c1cccnc1
  0.14 | 0
O=C(CNC(=O)/C=C/c1ccco1)N=Nc1c(O)[nH]c2ccccc12
  0.15 | 0.79
O=C1C2CCC(C(O)C2)N1Cc1ccccc1 (stereo not given)
  0.42 | -0.19
CCCNC(=O)CCn1cc(-c2ccc(OC)cc2)nc1CCN
  0.21 | 0.09
O=[N+]([O-])c1cccc(Nc2nc(Cl)nc(Cl)n2)c1
  0.78 | 0.02
CC(C)c1c(C(=O)N/N=C/c2ccc(OCc3ccccc3)cc2)nnn1-c1nonc1N
  1.87 | 1.27
CC1CN(C(=O)c2cccc(S(=O)(=O)Nc3ccccc3Cl)c2)CC(C)O1 (stereo not given)
  0.62 | 0.61
Cc1cc(OCC(=O)NCC2CCC(C(=O)O)CC2)c2c(C)c(Cc3ccccc3)c(=O)oc2c1 (stereo not given)
  0.22 | -1.39
Cc1oc(-c2ccc(-c3ccccc3)cc2)nc1CN1CCN(CC(=O)N(C)C)CC1
  0.3 | -1.65
COC(=O)CN(c1ccccc1OC)S(=O)(=O)c1ccccc1
  0.19 | 1.81
COc1ccc(Nc2cc(C(=O)NCCCN3CCN(C)CC3)c3ccccc3n2)cc1OC
  0.2 | 1.17
CC(C)CNC(=O)c1cccc(NC(=O)C2CCCO2)c1 (stereo not given)
  0.43 | 2.25
Cc1cccc(NC(=O)CCC(=O)NCCO)c1
  0.61 | 1.87
CN(C)CCCOC(=O)c1ccccc1
  0.76 | 0.1
CCCCOC(=O)CSc1nc2c(cc1C#N)C(=O)CC(C)(C)C2
  0.09 | -1.37
O=C(NCCN1CCNCC1)c1ccccc1O
  0.14 | 0.88
Cn1c(=O)c2c(nc(SCc3ccc(C(=O)O)cc3)n2C)n(C)c1=O
  1.39 | 2.22

Random excerpt: six compounds from above, in no set order.
Order of values: KCNQ2 enhance | KCNQ2 enhance baseline
Cc1oc(-c2ccc(-c3ccccc3)cc2)nc1CN1CCN(CC(=O)N(C)C)CC1
  0.3 | -1.65
CN(C)CCCOC(=O)c1ccccc1
  0.76 | 0.1
COc1ccc(Nc2cc(C(=O)NCCCN3CCN(C)CC3)c3ccccc3n2)cc1OC
  0.2 | 1.17
CC(C)CNC(=O)c1cccc(NC(=O)C2CCCO2)c1 (stereo not given)
  0.43 | 2.25
Cc1cccc(NC(=O)CCC(=O)NCCO)c1
  0.61 | 1.87
Cc1cc(OCC(=O)NCC2CCC(C(=O)O)CC2)c2c(C)c(Cc3ccccc3)c(=O)oc2c1 (stereo not given)
  0.22 | -1.39

(further entries)
Order of values: KCNQ2 enhance | KCNQ2 enhance baseline
COCCN=C1NN=C(c2ccc(NC(C)=O)cc2)CS1
  0.16 | 0
Cc1ccc(NC(=O)C(NS(=O)(=O)c2cccc3nsnc23)C(C)C)nc1 (stereo not given)
  2.27 | -0.6
CCOC(=O)C1=C(Cc2ccc(C)cc2)C(=O)c2ccccc2C1=O
  0.73 | 2.31
O=C(NC(=S)Nc1ccc2c(c1)OCO2)c1ccc(Cl)cc1
  0.79 | 0.5
CC1CCN(C(=O)c2ccc(NC(=O)c3cccs3)cc2)CC1
  0.91 | -0.33
O=C(c1ccc(CN2CCOCC2)cc1)N1CCC(Cc2ccccc2)CC1
  0.02 | 0.39
COc1ccc(Br)cc1CNC(C)c1ccccc1 (stereo not given)
  0.89 | -1.48
Cc1nc(Cc2nnc(SC(C)C(=O)Nc3cccc(C#N)c3)o2)cs1 (stereo not given)
  1.62 | -2.65
Cc1cc(NC(=O)CCCC(=O)O)nc(C)n1
  1.16 | -1.46
CN1C(C(=O)NCC2CC2)CC2Cn3c(nc4ccccc43)C21 (stereo not given)
  1.14 | 0.33

(continued)
smiles	KCNQ2 enhance	KCNQ2 enhance baseline
CN(Cc1ccccc1)C(=O)c1ccco1	0.04	-0.83
CCCC(=O)NCCc1nc2ccccc2n1CCC	1.98	-0.55
CC(C)NC(=O)NC(=O)COc1cccc2c1OC(C)(C)C2	0.12	-1.48
S=c1nc(C2CC2)[nH]c2ccccc12	15.6*	0.12*
Cc1ccc2[nH]c(=O)c(CN(Cc3nnnn3Cc3ccccc3)C3CCCC3)cc2c1	1.13	0.29
O=C(CCc1nnc(CCCc2ccccc2)o1)NCCc1ccco1	0.57	0.12
COCCCNC(=O)c1ccc(-c2csc(C)n2)cc1	2.22	3.01
CC(OC(=O)C1CC(=O)N(Cc2ccccc2)C1)C(=O)Nc1ccc(F)cc1Cl (stereo not given)	0.4	0.82
CCOC(=O)C(CO)(NC(C)=O)C(=O)OCC	0.42	-0.1
CN(C(=O)COC(=O)c1ccc(Br)c([N+](=O)[O-])c1)c1c(N)n(Cc2ccccc2)c(=O)[nH]c1=O	0.34	0.28
OCCN(CCCn1c(-c2ccncc2)nc2ccccc21)c1nc(CN2CCCCC2)cs1	0.71	0.07
O=C(/C=C/c1ccc(OC(F)F)cc1)Nc1cccc(S(=O)(=O)N2CCOCC2)c1	2.4	0.98
O=C(CCNC(=O)c1ccc([N+](=O)[O-])cc1)Nc1ccccc1N1CCCC1	1.64	-0.54
Cc1c(Cl)c(C(F)(F)F)nn1CC(=O)N1CCSCC1	0.7	-0.87
CC1CCCN(C(=O)Cn2cnc3c2c(=O)n(C)c(=O)n3C)C1 (stereo not given)	0.25	1.33
CCN(CC(=O)Nc1ccccc1OC)C(=O)CSCc1c(C)noc1C	0.1	-0.77
COc1ccc(NC(=S)N(CCCN2CCCCC2)Cc2cccs2)cc1	0.77	1.75
Cc1ccc(Sc2cc(C)nc(-c3ccccn3)n2)cc1	0.11	0
O=C(CSc1nnc(-c2ccncc2)n1-c1ccc(Cl)cc1)Nc1ccc(C(=O)O)cc1	0.29	0.66
Cc1ccc(N(C(=O)c2csnn2)C(C(=O)NC2CCCC2)c2ccccn2)cc1 (stereo not given)	1.41	0.48
COc1ccc(OCC(=O)Nc2ccc(S(=O)(=O)N3CCN(C)CC3)cc2)cc1	1.34	1.15
COc1ccc(/C=N/NC(=O)COc2cccc3cccnc23)cc1OC	1.68	-2.34
COc1ccc2[nH]c(=O)c(CN(C(=O)COc3ccccc3)C(C)C)cc2c1	0.81	-0.88
CCCC(=O)Nc1ccccc1N1CCN(C(=O)c2ccccc2)CC1	2.59	-0.15
CCCCNC(=O)CCc1nc2cccnc2n1Cc1ccc(OC)cc1	0.95	2.05
C(=C\c1ccccc1)/C=N/Nc1nncc(-c2ccccc2)n1	0.86	0.35
C/C(=N\N=C1/NC(=O)C(C)S1)c1ccco1 (stereo not given)	0.03	-1.11
CCc1nnc(NC(=O)COc2ccccc2[N+](=O)[O-])s1	0.64	1.67
COCCn1c(SCC(=O)NNC(=O)c2ccc(OC)c(OC)c2)nc2ccccc2c1=O	1.82	-0.98
COc1ccc(NC(=O)COc2ccc(/C=N/NC(=O)c3cccnc3)cc2OC)cc1	0.42	3.7
O=C(CNC(=O)Cc1ccccc1)N=Nc1c(O)[nH]c2ccc(Br)cc12	0.27	0.52
O=c1c(Cc2ccc(F)cc2)c(O)ccn1Cc1cccc(Cl)c1	0.2	-1.01
COc1ccc(C2NC(=S)N(c3ccccc3)C(C)=C2C(=O)Nc2ccccc2)cc1 (stereo not given)	0.45	-1.49
Cc1ccnc(NS(=O)(=O)c2ccc(NC(=O)Cc3cccs3)cc2)n1	0.05	0.68
C(#Cc1ccccc1)CN1CCN(c2ccccn2)CC1	0.75	0.1
Cc1ccc(C(=O)NC(=S)NCc2cccnc2)c(C)c1	2.32	0.54
O=C(NCc1cccs1)c1csc2c1CCCCC2	0.68	-0.04
Oc1ccc(CCC2CCCCN2Cc2nc(C3CC3)no2)cc1 (stereo not given)	0.9	2.84
O=C(Nc1ccon1)Nc1ccccc1C(F)(F)F	1	0.77
C=Cn1cc[n+](CC(=O)c2ccc(Cl)c(Cl)c2)c1	0.24	-0.25
O=C(COC(=O)CCCC1=NS(=O)(=O)c2ccccc2N1)Nc1ccccc1	1.51	0.1
COC(=O)c1ccc(C2CC(=O)Nc3cc(OC)c(OC)c(OC)c32)cc1 (stereo not given)	1.09	-0.13
Clc1cc(NCc2ccccc2)ncn1	1.46	-2.15
CCOC(=O)N1CCN(C(=O)CSc2cc(C)nc3c(-c4ccccc4OC)c(C)nn23)CC1	0.51	-0.4
CN(C)S(=O)(=O)c1ccc(C(=O)Nc2cccc(C(=O)N3CCOCC3)c2)cc1	0.9	-0.03

Four entries from above in a different format:
Structure: O=C(CNC(=O)Cc1ccccc1)N=Nc1c(O)[nH]c2ccc(Br)cc12
  KCNQ2 enhance = 0.27
  KCNQ2 enhance baseline = 0.52
Structure: O=C(NCc1cccs1)c1csc2c1CCCCC2
  KCNQ2 enhance = 0.68
  KCNQ2 enhance baseline = -0.04
Structure: CCOC(=O)N1CCN(C(=O)CSc2cc(C)nc3c(-c4ccccc4OC)c(C)nn23)CC1
  KCNQ2 enhance = 0.51
  KCNQ2 enhance baseline = -0.4
Structure: O=c1c(Cc2ccc(F)cc2)c(O)ccn1Cc1cccc(Cl)c1
  KCNQ2 enhance = 0.2
  KCNQ2 enhance baseline = -1.01

(list continues)
smiles	KCNQ2 enhance	KCNQ2 enhance baseline
O=CC1=C(N2CCOCC2)/C(=C/c2ccc(Cl)cc2)CC1	1.58	-0.02
O=C(CSc1ncn[nH]1)N1c2ccccc2Sc2ccccc21	0.42	0.84
O=C(Nc1ccc(S(=O)(=O)N2CCCC2)cc1)C1CCCCC1	1.26	0.16
Cn1c(N2CCCCC2)nc2c1c(=O)n(Cc1cccc(Br)c1)c(=O)n2C	0.29	0
COc1ccc(C(=O)N2CCCC2)cc1	0.15	0.77
O=C(CNS(=O)(=O)c1cccs1)NCc1ccccc1	0.23	1.24
COc1ccc(S(=O)(=O)N2CCN(c3ccccc3)CC2)cc1	1.06	0.02
O=C(Nc1ccccc1Cl)NC1(C(=O)N2CCCC2)CCCCC1	0.03	-0.47
Cn1c(=O)cc(SCC(=O)NCCC2=CCCCC2)c2ccccc21	0.72	0.65
O=C(CN1CCOCC1)N/N=C/c1ccc(-c2cccc(Cl)c2Cl)o1	1.41	0.72
Cc1ccc(CNC(=O)CN2C(=O)c3ccccc3S2(=O)=O)cc1	0.54	-0.57
COc1cccc(CN2CCN(Cc3cccc4c3OCO4)CC2CCO)c1 (stereo not given)	1.89	-2.58
CCCCn1cnc2c(=S)nc(N)[nH]c21	1.12	1.28
CC(C)[C@H](NC(=O)C1CCN(S(=O)(=O)c2ccccc2)CC1)C(=O)NCc1ccccc1	1.62	0.51
O=C(COC(=O)C1CC(=O)N(Cc2ccccc2)C1)c1ccc(F)cc1 (stereo not given)	0.59	0.45
COc1cccc(C(=O)Cn2c(=O)n(CC3CCCO3)c(=O)c3ccccc32)c1 (stereo not given)	0.7	-0.83
CC1CN(S(=O)(=O)c2cccc(C(=O)Nc3ccc(S(=O)(=O)Nc4ncccn4)cc3)c2)CC(C)O1 (stereo not given)	1.26	2.24
Cc1cc(NC(=O)CCC(=O)N(CC(=O)NC2CCCC2)c2cccc(C)c2C)no1	0.97	-1.33
COc1cc(/C=N/n2nnnc2N)ccc1OC(C)=O	0.07	0.05
